KCNQ2 enhance – potentiators of rat KCNQ2 potassium channel; B-score at 10 µM; CHO-K1 KCNQ2, FluxOR thallium flux fluorescence; hits give high values; actives 0.54% (n = 310,000); AID 2239, 2010; Potassium voltage-gated channel subfamily KQT member 2 (Rattus norvegicus), O88943;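 active = fluorescence ratio B-score at least 3 SD of library B-scores, with initial fluorescence B-score within 3 SD, cut at about 5.3 in these data; same plate scores as AID 2156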;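 note: B-score of peak minus minimum over baseline fluorescence ratio after K+ and Tl+ stimulus; positive B-score means potentiation of KCNQ2 with more thallium influx and brighter signal; only the inactives scoring about 0 or higher are listed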
Target sequence (O88943 whole entry, looked up): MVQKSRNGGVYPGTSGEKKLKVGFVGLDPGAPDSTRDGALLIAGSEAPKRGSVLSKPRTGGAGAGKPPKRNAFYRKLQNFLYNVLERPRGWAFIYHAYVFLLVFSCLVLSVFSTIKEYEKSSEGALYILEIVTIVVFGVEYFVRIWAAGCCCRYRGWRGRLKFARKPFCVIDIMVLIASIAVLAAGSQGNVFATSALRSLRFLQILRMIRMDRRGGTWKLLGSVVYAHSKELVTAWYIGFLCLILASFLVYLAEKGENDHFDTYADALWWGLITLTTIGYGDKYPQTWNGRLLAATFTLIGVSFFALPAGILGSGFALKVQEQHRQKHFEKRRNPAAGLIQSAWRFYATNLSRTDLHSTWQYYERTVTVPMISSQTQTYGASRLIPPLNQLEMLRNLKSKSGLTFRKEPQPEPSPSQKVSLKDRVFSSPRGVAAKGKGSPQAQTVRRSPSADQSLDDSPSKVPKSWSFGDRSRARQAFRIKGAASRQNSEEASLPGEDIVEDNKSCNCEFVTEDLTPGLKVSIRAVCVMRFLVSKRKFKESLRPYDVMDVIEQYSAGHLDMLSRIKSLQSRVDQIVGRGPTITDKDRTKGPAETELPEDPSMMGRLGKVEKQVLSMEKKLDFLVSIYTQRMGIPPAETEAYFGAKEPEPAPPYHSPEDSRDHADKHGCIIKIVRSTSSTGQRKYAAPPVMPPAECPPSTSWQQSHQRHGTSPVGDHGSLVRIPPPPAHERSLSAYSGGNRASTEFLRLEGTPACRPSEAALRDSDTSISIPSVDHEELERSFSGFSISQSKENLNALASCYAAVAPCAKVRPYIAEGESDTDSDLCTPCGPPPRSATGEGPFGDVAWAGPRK
KCNQ2 enhance baseline – further read-out of KCNQ2 enhance, marked with its call; B-score; compound at 10 µM; measured here: initial fluorescence intensity artifact check;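 brightness before thallium and not channel activity; 0 = typical well and far values either way flag optical interference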
* = called active by the depositor. Only part of the results is shown, so the mix of outcomes need not match the whole.

Under each structure – KCNQ2 enhance baseline | KCNQ2 enhance
O=C(COC(=O)c1ncc(Cl)c(Cl)c1Cl)NC1CCCCCC1
  -0.1 | 0.16
O=C(CCCCn1c(=O)[nH]c2ccsc2c1=O)NCC1CCCO1 (stereo not given)
  1.4 | 0.56
CCCn1nc(Oc2nc(N(C)C)nc(N(C)C)n2)ccc1=O
  1.4 | 0.07
CCOC(=O)C1=C(CSc2nc(-c3ccncc3)ccc2C#N)OC(N)=C(C#N)C1c1cccnc1 (stereo not given)
  1.1 | 0.16
Cc1noc(C)c1C(=O)NC(C)C1CCCO1 (stereo not given)
  -1.4 | 2
O=C(Cn1c(NCCCO)nc2ccccc21)c1ccc(F)cc1
  0.9 | 0.75
O=S(=O)(Nc1cccc(-n2cnnn2)c1)c1ccccc1F
  0.75 | 0.01
CC(C)c1ccc(S(=O)(=O)c2cn(Cc3ccc(F)cc3)c3cc4c(cc3c2=O)OCO4)cc1
  -1.2 | 0.01
CCCN(CC(=O)Nc1ccccc1C)C(=O)CCl
  -0.06 | 1.2
CNC(=O)n1ccc(C(=O)N2CCCCC2)n1
  -0.03 | 0.58
Cc1onc(-c2ccccc2Cl)c1C(=O)Nc1cc(=O)n(C)c(=O)n1C
  -0.32 | 0.68
CC(=O)Nc1ccc(/C=N/NC(=O)CCN2CCN(c3ccccc3)CC2)cc1
  1.4 | 0.08
CC(SCC(=O)NC12CC3CC(CC(C3)C1)C2)C(=O)O (stereo not given)
  -0.38 | 0.36
CCOc1ccc(-c2ccc(/C=C3/C(=N)N4C(C)=CSC4=NC3=O)o2)c([N+](=O)[O-])c1
  -0.91 | 0.69
CCOc1cc(C2NC(=S)NC(C)=C2C(=O)Nc2ccccc2)ccc1O (stereo not given)
  -0.06 | 1.4
CCOC(=O)c1[nH]c2ccc(OC)cc2c1NC(=O)CCN1CCN(Cc2ccccc2)CC1
  -1.5 | 1.5
CCOc1ccc(NC(C)c2cc(Cl)ccc2O)cc1 (stereo not given)
  1.5 | 4.5
COC(=O)c1sc(NC(=O)/C=C/c2ccc(C)cc2)nc1C
  -1.1 | 0.21
Cc1cc(NC(=O)c2cnccn2)no1
  0.9 | 0.71
COc1ccc(C2CC(c3ccco3)n3ncnc3N2)cc1 (stereo not given)
  -0.03 | 0.55
COc1cc(NC(=O)c2cc3ccccc3cc2O)c(OC)cc1Cl
  -0.35 | 0.07
COc1cc(CN2CCCN(C)CC2)c([N+](=O)[O-])cc1OC
  0.13 | 0.02
CNc1ccc(Oc2c(F)c(F)nc(F)c2F)cc1
  -1 | 0.68
O=C(c1ccccc1)N1CCN(c2ncccn2)CC1
  -0.99 | 2
Cc1cc(C)c2c(-n3cccc3)n[nH]c2n1
  -0.75 | 0.13
O=c1[nH]cnc2c1ncn2[C@H]1CC[C@@H](CO)O1
  -1.1 | 0.16
Cc1nnc(N/N=C\c2ccc(-c3cccc(C(=O)O)c3)o2)n1N
  -0.34 | 1.6
COc1ccc(C)c2sc(NC(=O)C3CC3)nc12
  0.19 | 0.52
Cc1cccc(C)c1NC(=O)C(=O)NCc1ccccn1
  0.65 | 0.16
CC(C)c1nc(CNC(=O)CCc2nnc(-c3ccsc3)o2)cs1
  0.23 | 1.4
COc1ccc2nc(NC(=O)c3ccccc3O)sc2c1
  -0.33 | 1.6
O=C(CN1CCN(c2ccccc2)CC1)Nc1ccc(F)cc1
  1.3 | 0.21
CC(=O)c1cccc(N2C(=NC(=O)C(C)C)SC3CS(=O)(=O)CC32)c1 (stereo not given)
  -0.21 | 0.03
Cc1ccc(-n2nnnc2SCC(N)=O)c(C)c1
  0.15 | 0.09
COC(=O)C1(Cc2cc(-c3cccnc3)no2)CCN(C(=O)OC(C)(C)C)CC1
  -0.01 | 1.3
CC(O)CNc1nc2c(c(=O)n(Cc3ccc(Cl)c(Cl)c3)c(=O)n2C)n1C (stereo not given)
  0.07 | 2.1
CC(=O)Oc1ccc(C(=O)Cc2ccccn2)c(O)c1
  0.45 | 0.61
COC(=O)c1sc(NC(=O)C2CCCCC2C(=O)O)c(C(=O)OC)c1C (stereo not given)
  2.4 | 0.23
CCSc1nnc(NC(=O)CSc2nccn2-c2cccc(C)c2C)s1
  0.8 | 0.52
C#CCOCCOCCOCCNc1nc(N2CCN(C(=O)[C@H](C(C)C)n3cc(CCO)nn3)CC2)nc(N2CCN(C(=O)[C@H]([C@@H](C)CC)n3cc(CCCN=C(N)N)nn3)CC2)n1
  -0.24 | 1.2
Cc1cc(NC(=O)COC(=O)C2=COCCO2)c([N+](=O)[O-])cc1C
  0.76 | 1.6
O=C(COC(=O)/C=C/c1ccc(OC(F)F)cc1)Nc1ccc(S(=O)(=O)N2CCCC2)cc1
  -0.32 | 1
Cn1cnnc1SCC(=O)Nc1ccc(Cl)cn1
  -0.05 | 1.1
Cc1cc(Cl)ccc1-n1c(-c2cccnc2)n[nH]c1=S
  0.84 | 0.5
Cc1nc(-c2cccc(NC(=O)c3ccco3)c2)cs1
  -0.24 | 1.2
CCn1c(SCC(=O)Nc2cccc(C)c2)nc2c(c1=O)SC(C)C2 (stereo not given)
  0.3 | 1.7
CCN(CC)S(=O)(=O)c1ccc2c3c(cccc13)C(=O)S2
  -1.8 | 0.78
N#Cc1c(SCC(=O)Nc2nccs2)nc2c(c1-c1ccco1)CCCC2
  -0.55 | 1.2
CCCCN1C(=O)c2ccc(C(=O)Nc3cccnc3)cc2C1=O
  0.21 | 0.23
O=C1/C(=C/c2cccs2)SC(=S)N1CCCC(=O)N(CCO)c1ccccc1
  -0.31 | 1.6
CCOC(=O)c1c(C)[nH]c(C(=O)CN2CC(C)OC(C)C2)c1C (stereo not given)
  2.2 | 0.26
CCCOc1ccc(CN2CCOCC2)cc1OC
  0.1 | 1.3
C=CCn1c(C(C)NC(=O)CC)nc2ccccc21 (stereo not given)
  -0.58 | 0.26
COc1ccc(NC(=O)CN2C(=O)CC(C)(C)S(=O)(=O)c3ccccc32)cc1
  -1.1 | 0.97
S=c1[nH]nc2c3c4c(sc3ncn12)CCCC4
  -1.7 | 0.52
COc1ccc(-c2cc(C(=O)N/N=C(\C)c3cccnc3)c3ccccc3n2)c(OC)c1
  -3.5 | 0.76
Cc1cc(OC(C)C(=O)NCCCN2CCCC2=O)c2c(C)c(C)c(=O)oc2c1 (stereo not given)
  0.47 | 0.41
COc1ccccc1C(=O)NCC(=O)OC(C)C(=O)N1CCOCC1 (stereo not given)
  0.03 | 0.91
COC(=O)C1CCCCN1C(=O)c1ccc(OC2CCN(C(C)=O)CC2)c(OC)c1 (stereo not given)
  0.05 | 0.87
Cc1ccc(O)c(NC(=O)c2cccc(NC(=O)c3ccco3)c2)c1
  0.16 | 1.9

Next structures follow:
Under each structure – KCNQ2 enhance baseline | KCNQ2 enhance
CCc1ccc(NC(=O)N2CCN(c3ccccc3)CC2)cc1
  -1.8 | 2.5
Cc1ccc2nc(NC(=O)C3CCN(S(=O)(=O)c4cccnc4)CC3)sc2c1
  0.52 | 2
O=C(NCCCN1CCOCC1)c1cc(-c2cccs2)on1
  1.6 | 0.08
CCOc1cc2[nH]c(=S)n(CCC(=O)N3CCc4ccccc4C3)c(=O)c2cc1OCC
  3.5 | 0.83
CC(=O)Nc1ccc(S(=O)(=O)CCC#N)cc1
  -0.96 | 0.71
CN1CCN(S(=O)(=O)c2ccc(Cl)s2)CC1
  -1.8 | 0.03
CCOc1ccc(C(=O)NNC2CC(=O)N(CCc3ccccc3)C2=O)cc1OC (stereo not given)
  0.24 | 0.84
CC1=NN(C(=O)c2ccccc2Cl)C(O)(c2cccnc2)C1 (stereo not given)
  -2.3 | 3.7
COc1ccc(CNCCCO)cc1OC
  -0.91 | 2.8
Cc1cccc(NS(=O)(=O)c2cccs2)n1
  -0.04 | 0.02
Cc1ccc(C)c(C(=O)COC(=O)c2cc([N+](=O)[O-])ccc2NCCO)c1
  0.63 | 3.7
COCCOc1cc(Nc2nnc(C(F)(F)F)s2)c(Cl)cc1Cl
  -1.4 | 1.6
CC(C)CC(=O)Nc1ccc(C(=O)Cn2c(=O)oc3ccccc32)cc1
  -0.01 | 1.7
CCCCOC(=O)Cn1c(=N)n(CCC)c2ccccc21
  -1.7 | 2.6
COc1ccccc1C(=O)Nc1nc(-c2ccc(S(=O)(=O)N3CCOCC3)cc2)cs1
  -0.49 | 0.26
Cc1ccc(C(C)(C)C)cc1S(=O)(=O)N1CC(=O)Nc2ccccc21
  -0.75 | 2
CC1CCCN(CC(O)COC(c2ccccc2)c2ccccc2)C1 (stereo not given)
  1.1 | 1.1
COc1cc2cc(CN(Cc3cccs3)C(=S)Nc3ccccc3)c(=O)[nH]c2cc1OC
  1.7 | 0.36
CCc1ccc(OCC(=O)Nc2ccc(-c3nc4ccccc4o3)c(O)c2)cc1
  -0.28 | 0.01
O=S(=O)(NCc1ccc2c(c1)OCO2)c1cccc(F)c1
  -0.16 | 0.55
COc1ccc2cc(S(=O)(=O)N3CCOCC3)ccc2c1
  -0.71 | 0.13
CC(=O)Nc1cccc(NC(=O)c2ccco2)c1
  -0.83 | 1.6
CCOc1ccc(S(=O)(=O)N2CCN=C2Cc2ccccc2)cc1C
  0.14 | 1.3
O=C(CC1C(=O)NCCN1Cc1cccc(F)c1)NC1CCC1 (stereo not given)
  0.01 | 0.42
CN(C)S(=O)(=O)c1ccc(NC(=O)/C=C/c2ccccc2Cl)cc1
  -1.2 | 0.1
CC(=O)C1=C(C)Nc2ncnn2C1c1ccccc1Cl (stereo not given)
  -2.7 | 0.71
C=CCNC(=S)N(Cc1ccccc1)Cc1ccccc1
  0.14 | 1.6
Cc1ccccc1Nc1nc(N)nc(-c2oc3ccccc3c2C)n1
  -0.24 | 2.5
CN1CCC(=O)N([C@H](CSc2ccc(Br)cc2)c2ccccc2)CC1
  -0.71 | 2.5
O=C1c2ccccc2NC(c2ccc(O)cc2)N1/N=C/c1ccc(O)cc1 (stereo not given)
  -0.31 | 1.2
CCOc1ccc(S(=O)(=O)NCc2ccccn2)cc1NC(=O)c1ccccc1
  -0.34 | 0.88
O=C(Nc1cccnc1)c1ccc(N2CCCC2)c([N+](=O)[O-])c1
  0.6 | 0.32
Cc1oc(-c2ccccc2Cl)nc1CN(C)C(C)c1ccon1 (stereo not given)
  -0.57 | 1.5
COc1cc2c(C(=O)NCc3ccccn3)cn(CC(C)C)c(=O)c2cc1OC
  0 | 0.37
COc1cc(/C=C2\SC(=S)N(NS(=O)(=O)c3ccccc3)C2=O)cc(OC)c1OC
  -0.22 | 0.18
CCCSc1nc(C)cc(=O)[nH]1
  -0.54 | 0.01
COc1ccc(Nc2nc(C)cc(-c3cc(-c4ccccc4)on3)n2)cc1
  1.4 | 0.8
COc1ccc(C(=O)NC(C)C2CC3CCC2C3)cc1 (stereo not given)
  1.1 | 0.04
CCN(CC)S(=O)(=O)c1cccc(C(=O)OCc2cc(=O)n3nc(C)sc3n2)c1
  -0.83 | 2.2
O=C(COC(=O)c1cc(S(=O)(=O)N2CCCCC2)ccc1N1CCOCC1)NC1CCS(=O)(=O)C1 (stereo not given)
  0.33 | 0.18
COc1ccccc1NC(=O)Nc1ccnn1C1CCN(C(=O)c2cscn2)CC1
  -1.7 | 0.03
CCOC(=O)c1[nH]ncc1CN1CCCC(C(=O)c2ccc(SC)cc2)C1 (stereo not given)
  -1.3 | 1.6
Cc1ccccc1OCCC(=O)OCC(=O)Nc1c(F)cccc1F
  -0.49 | 0.33
COc1cc(C(=O)N/N=C/c2ccc(OC)c(CN3CCN(c4ccc(F)cc4)CC3)c2)ccc1O
  0.95 | 1.3
O=C(CN1CCCC1)Nc1cc(C(F)(F)F)cc(C(F)(F)F)c1
  -1.9 | 0.09
C=CCNC(=O)CN1CCC(O)(c2ccccc2)CC1
  -0.01 | 0.92
Cc1cccc(NS(=O)(=O)c2ccc(C(=O)NCC3CCCO3)cc2)c1C (stereo not given)
  -0.46 | 0.01
COc1ccc(CCCc2n[nH]c(=S)o2)c(C)c1
  0.11 | 0.13
O=C(CSc1nccn1Cc1ccc(F)cc1)Nc1ccc(F)cc1F
  1.4 | 0.11
COc1ccc(-c2cc(C(F)(F)F)nc(SCC(=O)NCc3cccs3)n2)cc1
  -2 | 0.44
COc1cc(S(=O)(=O)N2CCCCC2)ccc1NC(=O)/C=C/c1ccccc1
  -0.16 | 0.74
O=C(CC(=O)N/N=C\c1ccccc1[N+](=O)[O-])NCCc1ccccc1
  2.5 | 3.3
COc1ccccc1NC(=S)NNC(=O)c1cc(C)nn1C
  0 | 1
CCNC(=S)N=Nc1c(O)[nH]c2ccc(C(C)C)cc12
  -0.67 | 1.6
O=[N+]([O-])c1nn(-c2ccc(Cl)cc2)n(O)c1=NCc1ccncc1
  -2.8 | 1.9
COc1ccc2c(c1)-c1ccccc1S(=O)(=O)N2C
  -0.82 | 0.4

Some of these compounds in order of their number in KCNQ2 enhance baseline, largest number first.
Under each structure – KCNQ2 enhance baseline | KCNQ2 enhance
COc1cc(S(=O)(=O)N2CCCCC2)ccc1NC(=O)/C=C/c1ccccc1
  -0.16 | 0.74
COc1ccccc1NC(=O)Nc1ccnn1C1CCN(C(=O)c2cscn2)CC1
  -1.7 | 0.03
O=[N+]([O-])c1nn(-c2ccc(Cl)cc2)n(O)c1=NCc1ccncc1
  -2.8 | 1.9

Exported with each value named: entries from further up.
Cc1nnc(N/N=C\c2ccc(-c3cccc(C(=O)O)c3)o2)n1N
  KCNQ2 enhance baseline: -0.34	KCNQ2 enhance: 1.6
COc1ccc(C)c2sc(NC(=O)C3CC3)nc12
  KCNQ2 enhance baseline: 0.19	KCNQ2 enhance: 0.52
Cc1cccc(C)c1NC(=O)C(=O)NCc1ccccn1
  KCNQ2 enhance baseline: 0.65	KCNQ2 enhance: 0.16
CC(C)c1nc(CNC(=O)CCc2nnc(-c3ccsc3)o2)cs1
  KCNQ2 enhance baseline: 0.23	KCNQ2 enhance: 1.4

High-throughput results as filed in PubChem BioAssay.
